Bioassay records: PubChem BioAssay, National Center for Advancing Translational Sciences (NCATS)
D2 ag: activates the human D2 dopamine receptor; P14416; activation, % (no concentration beside the values); hit rate 0.084% among 360,000; AID 624465; DiscoveRx PathHunter D2 beta-arrestin, luminescence, 90 min; 100% = 57 uM dopamine signal; in the data active = activation above about 40%; inconclusive = about 15% to 40%; inactive = below about 15%; also: compound concentration not given in the record; the text of the record calls up to 30% inactive
Target sequence (P14416 whole entry, looked up): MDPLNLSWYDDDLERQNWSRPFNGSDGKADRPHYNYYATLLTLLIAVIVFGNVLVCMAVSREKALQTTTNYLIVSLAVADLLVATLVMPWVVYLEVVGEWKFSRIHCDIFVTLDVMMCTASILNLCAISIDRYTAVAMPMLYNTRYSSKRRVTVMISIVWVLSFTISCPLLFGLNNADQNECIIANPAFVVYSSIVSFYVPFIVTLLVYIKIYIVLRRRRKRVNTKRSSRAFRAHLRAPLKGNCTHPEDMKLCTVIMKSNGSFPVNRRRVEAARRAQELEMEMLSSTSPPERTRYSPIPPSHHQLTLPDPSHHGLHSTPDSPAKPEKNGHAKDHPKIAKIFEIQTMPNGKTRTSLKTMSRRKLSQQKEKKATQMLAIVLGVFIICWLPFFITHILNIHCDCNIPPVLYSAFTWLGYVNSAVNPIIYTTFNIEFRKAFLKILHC
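DiscoveRx PathHunter D2 beta-arrestin cells (2,100/well) attached overnight, then compound-stimulated 90 min at 37 C in HBSS/10 mM HEPES/0.1% Tween-20 buffer; beta-galactosidase complementation read by luminescence after 1 h at ambient temperature. Dopamine 57 uM final (EC100) as control.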
PINK1 modulator: changes PINK1 expression. PINK1 immunofluorescence, high-content cytometry, 24 h. Potency, µM (top dose mostly 76.6 µM), without a hit: at the highest dose activation (PINK1 increase), most hits filed as activators. hit rate 0.2% among 410,000; active = well fitted activation curve with a large enough effect; inconclusive = small, poorly fitted or top-dose-only effect; inactive = flat fitted curve, though single readings scatter; cell line not stated here;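 also: potency is read from the fitted curve at half-maximal effect; % of control where 0% means no effect; nearly all actives have a fitted effect of over 65% in size; a mitochondrial uncoupler was the plate control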
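Fluorescence from anti-PINK1 antibody, together with nuclear and cell stains, was scanned on a laser-scanning cytometer. Before staining, stable-line cells were incubated 24 hours with compounds at 5 concentrations; primary antibody 12 h at 10 degrees C.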
TRPML1 agonist: agonists of human TRPML1 channel. Q9GZU1. TRPML1-expressing cells, Ca2+ dye fluorescence, FDSS; host cell line not named in the record; reference of the full effect not given here. activation, % (test concentration not listed). hit rate 0.12% among 410,000. AID 624414; in the data active = activation above about 50%; inconclusive = about 30% to 50%; inactive = below about 30%; also: 0% is about no effect; the text of the record puts the active cut at 80%
Target sequence (Q9GZU1 whole entry, looked up): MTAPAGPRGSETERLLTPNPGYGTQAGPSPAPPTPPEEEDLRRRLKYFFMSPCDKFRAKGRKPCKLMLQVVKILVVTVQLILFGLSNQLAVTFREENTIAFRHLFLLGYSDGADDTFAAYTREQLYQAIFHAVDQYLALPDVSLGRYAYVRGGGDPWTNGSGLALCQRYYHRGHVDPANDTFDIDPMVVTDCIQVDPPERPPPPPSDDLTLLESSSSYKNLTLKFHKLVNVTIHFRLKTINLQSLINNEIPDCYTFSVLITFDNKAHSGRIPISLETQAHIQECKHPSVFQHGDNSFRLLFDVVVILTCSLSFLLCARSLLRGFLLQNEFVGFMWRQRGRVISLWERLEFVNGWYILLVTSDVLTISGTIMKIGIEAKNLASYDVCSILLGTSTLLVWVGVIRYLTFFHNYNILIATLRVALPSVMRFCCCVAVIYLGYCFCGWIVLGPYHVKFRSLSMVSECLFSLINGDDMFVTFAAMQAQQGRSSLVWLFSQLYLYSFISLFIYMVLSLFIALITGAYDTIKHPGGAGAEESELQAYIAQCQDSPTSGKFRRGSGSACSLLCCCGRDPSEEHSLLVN
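TRPML1-DL cells, Tet-induced overnight (~16 h, 37 degrees C), loaded 45-90 min at room temperature with Ca8 no-wash calcium dye plus quencher. FDSS fluorescence: 10 s baseline, compound pin-transfer, 110 s agonist read, then EC80 54-4 (4uM final) and 110 s antagonist read.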
CtBP-E1A blk: CtBP/E1A binding inhibition; AlphaScreen GST-E1A/His-CtBP binding, 1536-well; stronger effect = lower value; control for the full effect not named in the record; activity change, % (concentration not given with the values); hit rate 0.49% among 340,000; in the data active means activity change below about -65%; inconclusive means about -30% to -65%; inactive means above about -30%; also: % is scaled to controls: 0 for no effect and ±100 for the full control effect
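Steps: dispense buffer (Tris pH 8.0, NaCl 300 mM, TCEP 1 mM, BSA, Tween 20); add 5X protein mix (GST-E1A, His-CtBP, 125 nM each); pin 23 nL compound; 2 h at 37 °C, dark; add 5X beads (50 ug/mL); 1 h; read.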
D2 PAM: positive allosteric modulators of human D2 dopamine receptor. hit rate 0.23% among 360,000. potentiation, % (no concentration beside the values). P14416. DiscoveRx D2 beta-arrestin cells, luminescence, 90 min; 100% = 57 uM dopamine signal; active = potentiation of 50% or more; inconclusive = 30% to 50%; inactive = 30% or less;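 also: compound concentration not given in the record; tested on top of an EC20 dose of dopamine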
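D2 cells co-treated with compound plus 50 nM dopamine (EC20) for 90 min at 37 deg C to detect potentiation. Beta-arrestin recruitment was read as enzyme-fragment luminescence after 1 h at ambient temperature. Full response was set by 57 uM dopamine.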
Six1-Eya2 blk: inhibitors of human Six1/Eya2 interaction. Q15475+O00167. AlphaScreen GST-Six1/His-Eya2 binding, biochemical; stronger effect = lower value; control for the full effect not named in the record. activity change, % (test concentration not listed). hit rate 0.56% among 360,000. AID 651725; in the data active = activity change below about -65%; inconclusive = about -30% to -65%; inactive = above about -30%; also: % is scaled to controls: 0 for no effect and ±100 for the full control effect; compound concentration not given in the record
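AlphaScreen luminescence read after one hour at 37 °C in darkness. Pin-transferred compounds met GST-Six1 and His-Eya2 protein (5X stock 250 nM/500 nM) plus glutathione donor and Ni-chelate acceptor beads (5X, 50 ug/mL).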
* hit, by the source's call; ? = inconclusive; . = no result given; [ ] = another dose, or the depositor's remark.

The line under a structure holds: TRPML1 agonist	Six1-Eya2 blk	PINK1 modulator	CtBP-E1A blk	D2 PAM	D2 ag
[1] COc1ccc(C2CC(=O)C3=C(C2)NC(C)=C(C(=O)Nc2ccccc2C)C3c2coc3ccc(C)cc3c2=O)cc1OC (stereo unspecified)
 : 0.1	-5	?	-6	-10	-1.3
[2] Cc1cc(C(=O)CCC(=O)N2CCN(c3ccccc3)CC2)c(C)s1
 : -1.2	-6	0.3%	0	3	-1.1
[3] CC(Oc1ccc(Br)cc1)C(=O)Nc1ccc(S(=O)(=O)Nc2nccs2)cc1 (stereo unspecified)
 : 2.3	-13	0.0%	-10	-3	-1.6
[4] Cc1ccc(S(=O)(=O)CCC(=O)NCCN2C(=O)S/C(=C\c3ccccc3)C2=O)cc1
 : -0.4	1	1.7%	0	15	-3.3
[5] O=C(CN1CCN(C/C=C/c2ccccc2)CC1)Nc1ccc(F)cc1F
 : -0.4	2	0.9%	0	-27	0.5
[6] Clc1ccc(Nc2ccccc2)nn1
 : 0.2	-2	-1.8%	-8	0	-2.1
[7] CCOP(=O)(OCC)c1nc(-c2ccc(Br)cc2)oc1N1CCCCC1
 : 2.2	-5	-0.8%	.	-4	-0.9
[8] O=C(Nc1cccnc1)c1cnn2cccnc12
 : 0.5	-6	0.2%[38.3 µM]	9	-8	-0.4
[9] COCCNC(=S)NC1CC2CCC(C1)N2Cc1ccccc1 (stereo unspecified)
 : 0.0	4	0.3%	5	-26	-3.0
[10] O=C(COc1cccnc1[N+](=O)[O-])NCCc1ccccc1
 : -0.4	-8	0.2%	-17	-25	-2.7
[11] Cc1ccc[n+](C(C)C(=O)Nc2ccc(C)c(C)c2)c1 (stereo unspecified)
 : -0.1	7	3.4%	-2	-7	-5.7
[12] O=C(CN1CCN(C(=O)CCC(=O)N2CCC(c3ccccc3)=N2)CC1)Nc1ccc(F)cc1
 : -0.7	-16	1.0%	0	4	-3.3
[13] COCCNS(=O)(=O)c1cccc2cccnc12
 : 0.3	0	-1.0%	0	-8	-4.8
[14] COCCOC(=O)C1=C(C)Nc2nc(C)nn2C1c1ccccc1 (stereo unspecified)
 : 1.3	3	1.5%	-10	-1	-1.2
[15] COc1ccc(CNC(=O)Cc2cn(C)c3ccccc23)c(OC)c1
 : -1.8	-11	0.4%	3	-2	0.9
[16] Cc1sc2ncnc(NCC(c3ccco3)N3CCCC3)c2c1C (stereo unspecified)
 : 0.5	-9	1.8%	-1	-26	-4.1
[17] O=C(c1ccccc1)N1N=C(c2ccccc2)CC1c1ccccc1 (stereo unspecified)
 : 4.6	-4	7.7%	-20	1	4.7
[18] O=S(=O)(Nc1ccc2cn[nH]c2c1)c1ccc(C(F)(F)F)cc1
 : -0.9	7	0.5%	9	-1	7.3
[19] CC(=O)N1CCc2cc(S(=O)(=O)N3CCOCC3)ccc21
 : -1.0	2	-1.2%	-3	-2	-1.2
[20] CCCCOCCCNC(=O)N[C@H](C(=O)O)C(C)CC (stereo partly specified)
 : -0.2	6	-0.9%	-4	-2	-2.4
[21] O=C(CSc1nc2ccccc2c(=O)n1CCCN1CCOCC1)c1c[nH]c2ccccc12
 : 1.6	-19	-1.2%	-14	-11	5.5
[22] O=C(NCc1cccnc1)c1ccc(NS(=O)(=O)c2ccccc2)cc1
 : -0.4	4	-1.7%	1	-11	-1.1
[23] O=C(CN1CCCC1)Nc1ccc(OC(F)(F)F)cc1
 : 0.7	-2	1.8%	4	-5	2.6
[24] NC1=NC(=Nc2ccc(S(=O)(=O)N3CCOCC3)cc2)c2ccccc21
 : 0.1	16	5.5%	15	-1	-1.9
[25] CCN(CC)S(=O)(=O)c1cccc(NC(=O)COC(=O)C2CC3C=CC2C3)c1 (stereo unspecified)
 : 0.5	-7	4.0%	.	-18	-5.2
[26] O=C(CCNS(=O)(=O)c1ccc(Br)s1)NCc1ccccc1
 : 0.3	3	1.9%	-2	0	1.5
[27] O=C(CN(Cc1ccccc1)C(=O)CCC(=O)Nc1ccccn1)NCc1ccco1
 : 0.5	2	1.1%	3	8	-0.5
[28] CCCCCCCNC(=O)C1(CC2CC(c3ccccc3)=NO2)CCNCC1 (stereo unspecified)
 : -0.5	5	-1.3%	-7	-5	-6.3
[29] O=C(Nn1c(-c2ccc(Br)cc2)nc2ccccc2c1=O)c1cccnc1
 : 0.2	-5	1.9%	-2	-4	-3.5
[30] COC(=O)c1c(N=CN(C)C)c(C#N)c2n1CCCC2
 : -0.8	1	-8.8%[38.3 µM]	4	-11	-1.3
[31] O=C(CSc1nccc(=O)[nH]1)Nc1ccc(F)c([N+](=O)[O-])c1
 : -0.4	-8	-0.9%	-18	-26	-4.0
[32] COc1cc(CC(=O)Nc2ccc(S(=O)(=O)Nc3ncccn3)cc2)cc(OC)c1OC
 : -0.1	-10	-3.0%	-1	2	-4.1
[33] Cc1ccc(OCC(=O)Nc2ccc(-c3nc4ncccc4o3)cc2)cc1
 : -1.1	4	-0.4%	1	-4	-1.8
[34] COc1ccc(C(=O)N2CCOCC2c2cc(C(=O)NCc3ccccc3)no2)cc1 (stereo unspecified)
 : -0.5	6	-0.4%	-3	-5	-4.3
[35] CCN1C(=O)N[C@@H](c2cccc(C(F)(F)F)c2)[C@H](C(=O)OC)[C@H]1C
 : -0.4	8	-0.8%	-23	-11	-0.2
[36] O=C(NN1C(=O)C2C3c4ccccc4C(c4ccccc43)[C@@H]2C1=O)c1ccccc1 (stereo partly specified)
 : -0.9	-16	8.4%	-2	5	-2.8
[37] COc1ccccc1NC(=O)NNC(=O)c1ccc2ccccc2c1
 : 2.1	4	1.5%	10	-10	0.7
[38] Cc1ccccc1-c1nc(CS(=O)(=O)CC(=O)NC2CCCC2)c(C)o1
 : 1.1	4	-0.3%	.	-6	6.0
[39] O=C(O)C1CCCN1C(=O)OCc1ccccc1 (stereo unspecified)
 : -0.1	3	.	8	-9	-1.8
[40] O=C(CN1CCN(c2ccc(Cl)cc2[N+](=O)[O-])CC1)N1CCOCC1
 : 0.4	0	-1.2%	2	-6	0.9
[41] CCC(=O)N1CCN(c2ccc(NC(=O)c3ccc([N+](=O)[O-])o3)cc2)CC1
 : -0.4	-10	-0.6%	5	13	8.0
[42] CCCCn1c(N)c(Sc2ccc([N+](=O)[O-])cc2)c(=O)[nH]c1=O
 : 0.1	6	2.3%	-21	-2	-3.6
[43] CC(=O)N=C1SC2CS(=O)(=O)CC2N1c1c(Cl)cccc1Cl (stereo unspecified)
 : 0.3	-10	-0.3%	-4	-18	-3.0
[44] Cc1nn(C)c(C(=O)NCc2ccc(Cl)cc2)c1Cl
 : 0.0	1	-0.3%	-7	-8	1.8
[45] COC(=O)c1ccc(C(=O)OC)c(NC(=S)N2CC(C)CC(C)C2)c1 (stereo unspecified)
 : 0.9	11	2.1%	4	-13	-7.1
[46] Cc1ccc(CS(=O)(=O)c2cn(CC(=O)N3CCOCC3)c3ccccc23)cc1
 : -0.8	2	-0.4%	1	-3	2.0
[47] C=C(C)CNC(=S)NNC(=O)c1ccncc1
 : 0.1	3	0.5%	.	-32	-4.2
[48] O=C(/C=C/c1ccc(Br)cc1)c1ccco1
 : 1.3	11	-2.5%	6	-11	0.8
[49] COc1cc(OC)cc(C(=O)N2CCN(c3ccccn3)CC2)c1
 : -0.4	0	-1.1%	-5	1	4.8
[50] CCc1nnc(NC(=O)C2CCCN(S(=O)(=O)c3ccc(OC)cc3)C2)s1 (stereo unspecified)
 : 0.8	8	-0.7%	-19	-19	-0.8
[51] COc1ccc(NC(=S)NCc2ccccn2)cc1OC
 : 0.0	2	-0.6%	-1	-18	1.0
[52] c1ccc(-c2csc(Nc3ccc4c(c3)OCCO4)n2)cc1
 : 0.3	0	0.6%	12	1	-8.9
[53] Cc1oc(-c2cccs2)nc1CSCC(=O)NC1CC1
 : -0.2	0	-0.2%	4	-10	-1.0
[54] CN(C)CCCNC(=O)CCc1ncc(C(F)(F)F)cc1Cl
 : 0.9	7	1.8%	-10	7	-5.5
[55] COc1ccc2c(C)c(Cc3ccccc3)c(=O)oc2c1OC
 : 5.7	4	1.4%	9	-5	-1.5
[56] COC(=O)c1sc2nc(N3CCCCC3)c3c(c2c1N)CCCC3
 : 0.7	28	8.3%	0	-24	-5.6
[57] Cc1noc(N)c1C(=O)Nc1ccccc1F
 : -0.5	7	0.2%	9	-8	-0.8
[58] O=C(CN1C(=O)c2ccccc2C1=O)NN1C(=O)c2ccccc2C1=O
 : 2.7	-3	?	-2	6	-2.4
[59] COc1cc(NS(=O)(=O)c2ccc(NC(=O)c3ccco3)cc2)nc(OC)n1
 : 0.4	0	?	0	-9	-1.2
[60] CC(=O)Nc1ccc(-c2ccc(NC(C)=O)cc2)cc1
 : 2.2	6	-0.5%	-10	-11	-3.9

Ordered by value in CtBP-E1A blk (lowest first): three of the compounds above
| item | smiles | CtBP-E1A blk |
| --- | --- | --- |
| 51 | COc1ccc(NC(=S)NCc2ccccn2)cc1OC | -1 |
| 59 | COc1cc(NS(=O)(=O)c2ccc(NC(=O)c3ccco3)cc2)nc(OC)n1 | 0 |
| 45 | COC(=O)c1ccc(C(=O)OC)c(NC(=S)N2CC(C)CC(C)C2)c1 (stereo unspecified) | 4 |

Further entries:
The line under a structure holds: TRPML1 agonist	Six1-Eya2 blk	PINK1 modulator	CtBP-E1A blk	D2 PAM	D2 ag
[61] Cc1ccccc1C(=O)Nc1nc2n(n1)C(c1ccccc1)CC(=O)N2 (stereo unspecified)
 : 0.1	2	.	5	-5	-2.3
[62] O=C(NCc1ccco1)c1ccc(Cn2c(=S)[nH]c3ccccc3c2=O)cc1
 : 1.7	-2	0.6%	5	2	-1.5
[63] O=C(NCC1CCCN1S(=O)(=O)c1cccs1)c1ccc(F)cc1 (stereo unspecified)
 : -0.3	-1	4.5%	7	10	2.0
[64] O=C(CC1SC(N2CCCC2)=NC1=O)Nc1ccc(C(=O)Nc2ccccc2)cc1 (stereo unspecified)
 : 1.3	-5	1.4%	3	21	-1.7
[65] CCn1c(COc2ccc(C(C)C)cc2)nnc1SCC(=O)Nc1nccs1
 : 0.6	0	-3.2%	-5	-7	-0.4

Filtered by structure: those above containing a COOH group
The line under a structure holds: TRPML1 agonist	Six1-Eya2 blk	PINK1 modulator	CtBP-E1A blk	D2 PAM	D2 ag
[20] CCCCOCCCNC(=O)N[C@H](C(=O)O)C(C)CC (stereo partly specified)
 : -0.2	6	-0.9%	-4	-2	-2.4
[39] O=C(O)C1CCCN1C(=O)OCc1ccccc1 (stereo unspecified)
 : -0.1	3	.	8	-9	-1.8
